12-LOX inh – ALOX12 (human) lipoxygenase inhibition | P18054 | purified 12hLO, xylenol orange hydroperoxide absorbance | Potency, µM (highest dose often 108 µM), inactives show at the top dose activity change, negative = inhibition, usual class: inhibitors | hit rate 1.1% among 580,000 | AID 1671190; further: potency means the concentration at half of the fitted maximal effect; on the % scale 0 is the no-effect control and ±100 the full control effect
Target sequence (P18054 whole entry, looked up): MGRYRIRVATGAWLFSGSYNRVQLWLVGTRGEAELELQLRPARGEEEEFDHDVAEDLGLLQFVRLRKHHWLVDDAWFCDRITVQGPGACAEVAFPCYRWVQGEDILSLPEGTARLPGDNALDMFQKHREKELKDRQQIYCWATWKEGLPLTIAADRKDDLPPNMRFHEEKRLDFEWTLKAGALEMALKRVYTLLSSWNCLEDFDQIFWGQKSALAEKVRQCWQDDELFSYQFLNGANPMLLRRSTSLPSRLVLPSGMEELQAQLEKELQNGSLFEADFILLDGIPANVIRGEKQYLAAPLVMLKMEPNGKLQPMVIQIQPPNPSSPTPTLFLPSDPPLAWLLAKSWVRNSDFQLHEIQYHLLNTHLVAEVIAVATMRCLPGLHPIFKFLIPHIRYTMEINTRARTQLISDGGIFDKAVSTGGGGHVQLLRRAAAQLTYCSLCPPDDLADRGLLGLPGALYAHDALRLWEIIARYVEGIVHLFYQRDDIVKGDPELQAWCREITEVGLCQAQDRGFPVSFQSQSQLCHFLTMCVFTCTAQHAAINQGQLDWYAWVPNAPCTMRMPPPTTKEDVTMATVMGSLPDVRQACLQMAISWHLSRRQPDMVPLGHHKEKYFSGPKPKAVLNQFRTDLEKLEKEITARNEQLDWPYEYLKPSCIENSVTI
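Purified human 12hLO at 150 nM in 25 mM Hepes, 0.01% Triton X-100, pH 7.0, preincubated 15 min at room temperature with compound. Reaction started with 40 uM arachidonic acid, 30 min at room temperature. Hydroperoxide measured by Fe-xylenol orange, 573/405 nm absorbance ratio.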
PI4K2A inh – blocks human PI4K2A kinase activity; Q9BTU6; purified PI4K2A, ADP-Glo luminescence, 1 h; hits give low values; activity change, negative = inhibition, % at 76.9 µM; hit rate 0.13% among 420,000; AID 1346378; in the data active means activity change below about -50%; inconclusive means mostly about -30% to -49%;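 further: -100% = wells without enzyme as full effect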
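In this quantitative HTS, ADP production by PI4K2A was quantified luminescently after 1 h at ambient temperature; 100 microM adenosine served as plate-quality control.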
ERG-DNA inh – inhibitors of human ERG Ets domain-DNA interaction; P11308; fluorescence polarization, His-ERG Ets domain / labelled DNA; Potency, µM (titrated, usually from 76.9 µM), for inactives: top-dose FP activity, negative = inhibition, most hits filed as inhibitors; hit rate 0.028% among 370,000; active means well fitted inhibition curve with a large enough effect in the polarisation, with a control signal flat; inconclusive means small, poorly fitted or top-dose-only effect, or effect the other way, or a change in a side signal; inactive means no such curve, though single readings can be large or run the other way; the % refers to the polarisation;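 further: polarization taken with two DNA probes labelled with fluorescein and Texas red; potency means the concentration at half of the fitted maximal effect; % of control where 0% means no effect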
Target sequence (P11308 whole entry, looked up, the tested form may be a part): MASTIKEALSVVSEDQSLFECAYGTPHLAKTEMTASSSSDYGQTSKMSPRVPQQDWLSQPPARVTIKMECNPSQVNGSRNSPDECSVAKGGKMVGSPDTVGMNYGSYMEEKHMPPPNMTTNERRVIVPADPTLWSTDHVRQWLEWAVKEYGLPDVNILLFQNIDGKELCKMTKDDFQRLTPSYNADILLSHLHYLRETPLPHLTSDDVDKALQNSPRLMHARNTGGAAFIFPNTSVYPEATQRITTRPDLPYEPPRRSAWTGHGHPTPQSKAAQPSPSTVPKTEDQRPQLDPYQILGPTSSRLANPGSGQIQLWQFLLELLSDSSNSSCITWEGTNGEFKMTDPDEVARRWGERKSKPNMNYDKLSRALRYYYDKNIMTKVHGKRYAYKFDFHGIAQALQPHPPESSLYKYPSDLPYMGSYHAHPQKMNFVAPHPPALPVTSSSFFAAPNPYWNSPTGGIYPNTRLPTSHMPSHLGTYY
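His-tagged ERG Ets domain (1 uM in the protein solution; 300mM KCl, 50mM Tris-HCl, 1mM EDTA, 1mM DTT, pH 7.5) received compound, then a probe mix of 5 nM fluorescein-DNA and 100nM Texas-615-DNA. Fluorescence polarization was read for both dyes.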
GLS inhibitor – blocks human kidney-isoform glutaminase activity. GLS enzymatic activity, qHTS titration. Potency, µM (highest dose often 45.5 µM), without a hit: top-dose activity change, negative = inhibition, usual class: inhibitors. hit rate 0.21% among 410,000. AID 624170; further: potency means the concentration at half of the fitted maximal effect; on the % scale 0 is the no-effect control and ±100 the full control effect
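Coupled fluorescence readout: glutamate oxidase/HRP/Amplex Red detect glutamate formed by hKGA from L-glutamine (1 mM solution added). Buffer 45 mM KH2PO4 pH 8.2, 0.02% Tween-20; reads at t0 and 30 min RT.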
RGS4 inh – blocks human RGS4-accelerated GTP hydrolysis; P49798; Transcreener GDP fluorescence polarization, RGS4-accelerated GTP hydrolysis; Potency, µM (titrated, usually from 114 µM), without a hit: at the top dose activity change, negative = inhibition, hits mostly inhibitors; hit rate 0.039% among 390,000; AID 504845; further: potency means the concentration at half of the fitted maximal effect; on the % scale 0 is the no-effect control and ±100 the full control effect; nearly all actives have a fitted effect of over 75% in size; some results filed as inactive show a strong effect at the top dose
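MLSMR compounds (23 nl, pin-transferred) preincubated 10 min at room temperature with a 500nM (2x) first reagent, then RGS4 at 900nM (2x) plus Transcreener GDP mix added; fluorescence polarization (620/688 nm) read before and after 90 min at 30 °C.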
Starred values were filed as active, the others as inactive; ? = inconclusive; · = not tested or not shown; & = joins results of further samples; [ ] = dose if it differs, or a comment. Unless noted, the call rests on the fitted dose curve; in most records, active means well fitted curve in the direction sought with a large enough effect; inconclusive means small, poorly fitted or top-dose-only effect, or another doubt; inactive means no such curve, though single readings can be large; an effect the other way counts as inactive or inconclusive. The list is partial; the hit share may differ from the screen's.

Under each structure: GLS inhibitor | PI4K2A inh | 12-LOX inh | RGS4 inh | ERG-DNA inh
- Cc1ccc(C(=O)n2c(-c3ccccc3)cnc2SCC(=O)Nc2ccc(C)cc2C)cc1
 : -1.5% | 20.6 | -0.8% | -19.4% | 1.4%
- COCCn1nnnc1C(c1cc2cc(C)ccc2[nH]c1=O)N1CCc2ccccc21 (centres undefined)
 : 23.3% | 0.7 | -12.9% | ? | 3.4%
- CC(=O)N1CCN(CC(=O)Nc2ccc3c(c2)CCC3)CC1
 : -1.7% | -6.2 | -5.4% | 9.5% | -0.2%
- COc1ccc(S(=O)(=O)N2Cc3ccccc3CC2C(=O)O)cc1 (centres undefined)
 : · | -5.3 | ? | 17.0% | -8.6%
- COc1cccc(NC(=O)N2CCN(c3nc(-c4cccc(OC)c4)cs3)CC2)c1
 : -0.6% | 0.5 | 0.7% | -4.2% | 6.0%
- N#Cc1ccc(/C=N/NC(=O)c2ccccc2F)cc1
 : -2.8% | 2.0 | -17.7% | -23.7% | -3.2%
- O=C(Nc1nnc(COc2ccccc2)s1)c1ccco1
 : -1.0% | 0.4 | -4.9% | 11.8% | -4.3%
- CCNC(=S)Nc1ccc(OCc2nc3ccccc3s2)cc1
 : 6.3% | -4.4 | 44.7µM* | -76.3% | 4.3%
- Cc1nc(SCC(=O)c2ccccc2)n[nH]1
 : -0.3% | -0.8 | -7.6% | ? | 6.2%
- COC(=O)C1=C(C)NC(C)=C(C(=O)OCCN(C)Cc2ccccc2)C1c1cccc([N+](=O)[O-])c1 (centres undefined)
 : 9.1%&4.0% | -4.0&-0.8&-4.7 | -22.1%&0.0% | -10.5%[56.9 µM] | -1.5%
- C=CCSc1n[nH]c(-c2cccs2)n1
 : 0.2% | 2.1 | ? | 31.7% | 4.7%
- Cc1cc(C)n(-c2nncc(-c3ccccc3)n2)n1
 : 5.0% | -1.1 | 236.6%[activator] | -21.0% | 3.6%
- CCOc1ccc(NC(=O)NC(CC)Cn2nnc3ccccc3c2=O)cc1 (centres undefined)
 : 2.3% | -5.6 | 5.9%&-8.1% | 1.0% | 4.2%
- Cc1cccc2c1N(Cc1ccccc1OCCC(C)C)C(=O)C2=O
 : 3.2% | 25.9 | -1.6% | ? | 8.4%
- O=[N+]([O-])c1ccccc1OCCN1CCCC1
 : -3.2% | 8.9 | 23.1% | -11.9% | 11.6%
- CN(C)S(=O)(=O)c1cccc(C(=O)Nc2ccc3c(c2)CCC3)c1
 : -11.4% | 4.0 | -22.3% | -31.2% | 5.8%
- CCc1ccc(NCc2cc3c(C)nn(-c4ccccc4)c3[nH]c2=O)cc1
 : 7.9% | -0.6 | -8.5% | 1.4% | ·
- C/C(=N\NC(=O)c1ccc(NS(=O)(=O)c2cccs2)cc1)c1cccs1
 : 0.8% | -0.2 | 10.2% | 4.4% | -9.4%
- COc1ccc(/C=C/C2=Nc3ccccc3NC(C)(C)C2)cc1OC
 : 1.2% | -0.1 | ? | 9.7% | -8.4%
- COc1ccc(CN2CCN(C(=O)c3ccc(F)cc3)CC2)c(OC)c1
 : -2.8% | 2.4 | ? | -3.2% | -1.8%
- CN/C(=C/[N+](=O)[O-])NCCSCc1ccc(CN(C)C)o1
 : 1.3% | 0.6 | 9.9% | 3.3% | 8.2%
- CCc1nn2c(-c3ccccc3OC)ccnc2c1-c1ccccc1
 : 0.7% | 2.3 | -1.8% | -3.1% | -2.6%
- O=C(Cn1cnc(S(=O)(=O)N2CCCCC2)c1)NCc1ccco1
 : -8.0% | 7.2 | · | -12.6% | 2.3%
- CN(C)CCCn1c(SCC(=O)Nc2sc3c(c2C#N)CCCC3)nnc1-c1ccncc1
 : 5.5% | -6.4 | ? | -20.8% | -4.7%
- C/C(=N\NC(=O)c1ccc(NS(=O)(=O)c2cccs2)cc1)c1ccncc1
 : 10.4% | 1.1 | -5.0% | -6.4% | -5.5%
- CSc1ccc(CNc2ncc(-c3cccc([N+](=O)[O-])c3)n2C)cc1
 : -2.4% | -2.5 | 0.708µM* | 12.0% | -9.0%
- COCCCNC(=O)c1oc2c(c1C)-c1nn(Cc3cccc(Cl)c3)cc1CC2
 : -9.1% | -0.7 | -22.0% | 2.4% | -0.3%
- CC(C)C[C@H](NC(=O)c1[nH]cnc1C(=O)N[C@@H](C)C(=O)OCc1ccccc1)C(=O)OC(C)(C)C
 : 1.6% | -1.0 | 6.8% | -26.5% | 15.5%
- O=c1oc2c(O)cccc2cc1-c1nc2ccccc2[nH]1
 : 14.0% | -7.6 | ? | -14.0% | 3.1%
- CCN(CC(=O)Nc1c(F)cccc1F)C(=O)c1cccc(-n2cccc2)c1
 : ? | -11.1 | -10.6% | 0.9% | -1.2%
- Cc1cccc(CN2CCN(C(C)C(=O)NC(C)c3ccccc3)CC2)c1 (centres undefined)
 : -12.3% | -7.4 | ? | 0.9% | 3.1%
- Cc1c(N=Cc2ccco2)c(=O)n(-c2ccccc2)n1C
 : -10.0% | 1.1 | 13.9% | -17.5% | 5.5%
- CCOC(=O)c1sc(NC(=O)CSc2ccccn2)c(C#N)c1C
 : -8.4% | -0.6 | 1.4% | -7.5% | ·
- COc1ccc(Cl)cc1N(CC(=O)Nc1ccc2c(c1)OCCO2)S(C)(=O)=O
 : 3.1% | -1.4 | 0.0% | -24.8% | 0.6%
- CC(=O)Oc1c(Br)cc(N(C(C)=O)S(=O)(=O)c2ccccc2)c2ccccc12
 : 9.9% | ? | 12.6µM* | -30.1% | 4.5%
- CCN(CC(=O)Nc1c(F)cccc1F)C(=O)CCc1nc2sc3c(c2c(=O)[nH]1)CCCC3
 : 97.9%[activator] | -14.3 | 14.1µM* | -41.1% | 11.9%
- CCN1CCN(c2cc(-c3ccccc3)nc3cc(-c4cccc(F)c4)nn23)CC1
 : -13.1% | 4.4 | ? | 18.1% | 1.8%
- COc1ccc(CN2CCCC(C(=O)N3CCCC3)C2)cc1 (centres undefined)
 : · | 10.0 | -13.2% | -13.7% | -3.3%
- O=C(Nc1nc(-c2ccccn2)cs1)C1CC(=O)N(c2ccc3c(c2)OCCO3)C1 (centres undefined)
 : -13.6% | -4.6 | 6.5% | -11.3% | -10.1%
- CC(C)(C)NC(=O)CN(C(=O)CCN1CCCc2ccccc21)C(C)(C)C
 : -0.7% | -7.4 | 21.6% | -15.9% | -3.7%
- C/C(=N\NC(=O)c1ccc(NS(=O)(=O)c2cccs2)cc1)c1ccc(Cl)cc1
 : -7.6% | -0.5 | 8.4% | -2.7% | -9.0%
- Cn1c(SCc2cccc(F)c2)nnc1-c1ccncc1
 : -8.4% | 2.3 | 81.0%[activator] | -16.9% | -7.7%
- c1ccc(-c2cnc(-c3cccnc3)o2)cc1
 : 0.9% | -7.1 | 25.4% | -17.6%[11.4 µM] | -7.9%
- NC(CO)C(O)c1ccc([N+](=O)[O-])cc1 (centres undefined)
 : 3.7% | -0.5 | 6.9% | 1.9% | 2.5%
- NC(=O)C(c1ccc(Sc2ccccc2)nn1)c1ccc(Cl)cc1Cl (centres undefined)
 : 3.4% | 3.3 | 13.5% | -22.9% | 3.8%
- Cc1ccc(OCCn2cncn2)c([N+](=O)[O-])c1
 : -9.0% | 3.5 | 18.5% | -11.4% | 9.8%
- CC(=O)Nc1ccc(S(=O)(=O)Nc2nc3ccccc3nc2Nc2ccc(O)c(C(=O)O)c2)cc1
 : -1.4% | -1.5 | -9.4% | -14.4% | ?
- COC(=O)/C=c1/sc2nc3ccccc3n2c1=O
 : -3.2% | -2.4 | ? | -82.4% | -5.5%
- O=C(O)C1CSC(c2ccncc2)N1 (centres undefined)
 : 11.1% | 5.1 | · | -39.7% | 4.5%
- Cc1cc(C)cc(NCc2cc3c(cc2[N+](=O)[O-])OCO3)c1
 : 10.8% | -2.4 | -18.7% | 3.6% | ·

Reprinted from the part before: three entries; new compounds follow.
Under each structure: GLS inhibitor | PI4K2A inh | 12-LOX inh | RGS4 inh | ERG-DNA inh
- COC(=O)/C=c1/sc2nc3ccccc3n2c1=O
 : -3.2% | -2.4 | ? | -82.4% | -5.5%
- O=C(O)C1CSC(c2ccncc2)N1 (centres undefined)
 : 11.1% | 5.1 | · | -39.7% | 4.5%
- Cc1cc(C)cc(NCc2cc3c(cc2[N+](=O)[O-])OCO3)c1
 : 10.8% | -2.4 | -18.7% | 3.6% | ·
- Cc1ccc(/C=C/C(=O)NCc2ccc(S(N)(=O)=O)cc2)o1
 : 0.0% | -2.1 | -13.3% | ? | -0.4%
- COc1cc(C(=O)NCCc2c[nH]c3ccccc23)ccc1OCc1c(C)noc1C
 : -7.7% | -5.5 | 0.0% | -43.9% | 9.3%
- O=C(CSc1nc2nc(-c3cccs3)cc(C(F)(F)F)c2c(=O)[nH]1)NCc1ccco1
 : -15.4% | 1.1 | ? | -13.5% | 2.8%
- CC1CCN(CCOc2ccc(OCc3ccccc3)cc2)CC1
 : -12.5% | -3.6 | ? | -12.3% | ·
- CCOC(=O)C1CCCN(C/C=C/c2ccccc2[N+](=O)[O-])C1 (centres undefined)
 : -3.2% | 15.5 | ? | -11.8% | -4.4%
- O=c1c(NCCc2ccc(Cl)cc2)c(-c2ccccc2)c1=O
 : 13.8% | 2.5 | -5.7% | 20.7% | -7.7%
- O=[N+]([O-])c1ccccc1/C=N/n1c(C(F)(F)F)n[nH]c1=S
 : -19.0% | 0.2 | ? | ? | -3.4%
- Cn1c(SCC(=O)NC(=O)NCc2ccco2)nnc1-c1ccccc1
 : -20.2% | -15.6 | 12.5% | -42.5% | 7.1%
- O=C(CSc1cn(CCNC(=O)c2ccccc2F)c2ccccc12)Nc1ccccc1F
 : 6.6% | 1.1 | -8.5% | 15.0% | 2.8%
- COc1ccc(NC(=O)c2ccc(NC(=O)CCS(=O)(=O)c3cccs3)cc2)cc1
 : 8.4%&-7.5% | -1.3&4.7 | 19.0%&0.0% | -25.6%&-31.2% | 0.0%&10.4%
- COc1cc2c(cc1OC)-c1cc(N3CCCCCC3)nc(=O)n1CC2
 : 26.9% | -2.7 | 24.9% | 19.0% | ·
- Cc1cc(OCc2nc(-c3ccc(NC(=O)c4cccnc4)cc3)no2)ccc1Cl
 : 3.9% | -1.9 | 0.0% | -15.2% | -3.0%
- Cc1nnc(NC(=O)CSc2ccc(-c3ccco3)nn2)s1
 : -1.9% | 10.9 | ? | -39.6% | -6.4%
- COc1ccc(-c2nnc(SCCC(=O)O)n2C)cc1OC
 : 2.0% | -4.6 | -11.2% | -12.1%[11.4 µM] | -1.1%
- O=C(O)c1ccc2nc3c(nc2c1)-c1ccccc1C3=O
 : 15.6% | ? | ? | ? | 0.4%
- O=C(C1CCCN(Cc2ccccc2[N+](=O)[O-])C1)N1CCCC1 (centres undefined)
 : -15.6% | 8.1 | ? | -52.0% | -27.5%
- C=CCn1c(CNC(=O)c2ccccc2F)nnc1SCc1nc2ccccc2c(=O)[nH]1
 : 3.8% | -13.3 | -6.6% | 3.0% | ?
- CCOC(=O)C1CCCN(C(=S)NC(=O)/C=C/c2ccc(F)cc2)C1 (centres undefined)
 : 0.3% | -6.6 | -6.5% | -16.2% | 9.4%
- NS(=O)(=O)c1ccc(NC(=O)c2ccc3c(c2)CCCC3)cc1
 : 6.0% | 2.2 | 0.1% | 4.3% | -6.1%
- CCOC(=O)c1ccccc1N=Cc1c(O)c2ccccc2oc1=O
 : -7.1% | 6.7 | -26.8% | -0.9% | 0.3%
- CCOC(=O)c1sc(NC(=O)CSc2nccc(C)n2)c(C#N)c1C
 : -2.7% | 7.5 | 4.7% | 8.1% | -13.5%
- O=C(CCCn1cnc([N+](=O)[O-])n1)Nc1cccc(O)c1
 : 24.9% | -2.4 | -5.0% | 7.2% | -3.1%
